# AID504770 – growth inhibitors of E. coli YBA685 in a screen for V. cholerae RctB (chromosome II replication) inhibitors; z-score (test concentration not listed); AID 504770; E. coli YBA685 rctB-dependent plasmid, OD600 growth, 3 h; stronger effect = lower value; 130,000 compounds, 0.27% hits;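 active = z-score under -2 on both plates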;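 also: wells of about 30 µL received 100 nL stock; score is relative to mean and SD of the test wells; the first replicate is given; strong numbers were not always called active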
# Ba CapD inh – blocks the Bacillus anthracis CapD enzyme; purified CapD enzyme, fluorescence intensity read-out; stronger effect = lower value; some hits fall short of the stated cut; z-score (no concentration beside the values); 140,000 compounds, 0.23% hits; AID 492967;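 active = z-score under -4 in either of two replicates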;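 also: stock transfer was 100 nL into about 40 µL; score is relative to mean and spread of the plate; one replicate is shown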
# Numbers without * were called inactive; i = inactive; x = not tested or not shown.
Molecule | AID504770 | Ba CapD inh
Cc1cc(NCc2ccco2)ncn1 | -0.7 | -0.81
O=C(NN1CC(=O)N(c2ccccn2)C1=O)C(c1ccccc1)c1ccccc1 | -0.6 | x
O=C(C1=NN(c2ccccc2)C2(S1)SC(c1ccc(Br)cc1)(c1ccc(Br)cc1)c1ccccc12)c1ccccc1 (configuration not stated) | x | -0.15
O=C(NCC1CCCO1)c1ccc(Cn2c(=S)[nH]c3ccccc3c2=O)cc1 (configuration not stated) | -0.05 | -0.67
COc1ccc(Cn2c(=O)[nH]c3cc(C(=O)NC4CCCC4)ccc3c2=O)cc1 | 0.3 | 0.58
Cc1c(C(=O)N2CCC(C#N)CC2)sc2ncnc(N3CCc4ccccc4C3)c12 | x | 0.86
Cc1cccc(Oc2coc3cc(O)ccc3c2=O)c1 | -0.4 | 3.5
Cn1c(CNS(=O)(=O)c2ccc(F)cc2)nnc1SCc1ccccc1 | -0.2 | x
COc1ccc(OC)c(NC(=O)c2cc3ccc(OC)cc3oc2=Nc2ccc(C(=O)O)cc2)c1 | x | 0.07
Cc1cc(-c2ccc(S(=O)(=O)Nc3cccc(Br)c3)cc2)on1 | -0.4 | -0.74
O=C(CCc1cn(Cc2ccc(F)cc2)c2ccccc12)N1CCOCC1 | 1.4 | 2.1
C=CCNC1CCS(=O)(=O)C1 (configuration not stated) | -0.8 | x
Clc1cccc(-n2nnc(-c3ccccc3)n2)c1 | -0.6 | -0.33
Cc1cc(N2CCC(C(=O)NCCN3CCOCC3)CC2)n2nc(C)c(-c3ccc(Cl)cc3)c2n1 | 1.6 | 0.48
N#CCSC1=Nc2ccccc2C2=NC(CCC(=O)NCc3ccccc3)C(=O)N12 (configuration not stated) | -1.2 | -0.7
CCOc1ccc(/C=C2/C(=O)N(C)C(=S)N2CC(=O)OC)c(OCC)c1 | 1.5 | 0.29
COC(=O)c1cc(=O)n(C)c(=Nc2ccc(F)c(F)c2)s1 | -0.4 | -0.43
Cc1ncsc1CCSc1n[nH]c(=O)n1-c1ccccc1 | -1.1 | -0.72
COc1ccc(-n2nc(C(=O)N3CCCC3)c3c4ccccc4n(C)c3c2=O)cc1 | -1.4 | 1.7
O=C(CSc1nccn1-c1ccc(Cl)cc1)NCc1ccco1 | -0.1 | x
Cc1ccc(NC(=O)/C(=C\c2ccc3c(c2)OCO3)NC(=O)c2ccccc2Br)cc1Cl | x | 1.4
O=c1ccc2cc(O[C@@H]3OC(CO)[C@@H](O)[C@@H](O)C3O)c(O)cc2o1 (some centres not stated) | x | 1.2
CC(=O)N1CCC(C(=O)c2ccc(F)cc2F)CC1 | -1.1 | -0.53
O=C(Cn1nnc(-c2ccccc2)n1)c1ccccc1 | -0.9 | -0.35
CCOC(=O)C1=NN(C(=O)c2ccc(Cl)cc2)C(O)(C(C)(C)C)C1 (configuration not stated) | x | -0.095
O=C(/C=C1\SC(=O)N(Cc2ccc(F)cc2)C1=O)Nc1nccs1 | -0.55 | -0.97
CCCC12CN3CC(CCC)(CN(C1)C3c1ccc3c(c1)OCO3)C2=O (configuration not stated) | -1.1 | -0.04
c1cncc(-c2nc(-c3ccco3)cs2)c1 | 1.1 | 1.9
OC1(C(F)(F)F)CC(c2cc3ccccc3o2)=NN1 (configuration not stated) | -0.35 | 6.9
O=S(=O)(c1c(F)cccc1F)N1CCN(C(c2ccccc2)c2ccccc2)CC1 | x | 0.59

# Already shown: entries from further up.
Molecule | AID504770 | Ba CapD inh
CCOc1ccc(/C=C2/C(=O)N(C)C(=S)N2CC(=O)OC)c(OCC)c1 | 1.5 | 0.29
COC(=O)c1cc(=O)n(C)c(=Nc2ccc(F)c(F)c2)s1 | -0.4 | -0.43
Cc1ncsc1CCSc1n[nH]c(=O)n1-c1ccccc1 | -1.1 | -0.72

# Remaining list, next part:
Molecule | AID504770 | Ba CapD inh
CCOc1cccc2cc(C(=O)Nc3nccs3)c(=Nc3cccc(C(F)(F)F)c3)oc12 | 1.7 | 1.1
Cn1c(=O)c2c(SCC(=O)Nc3nccs3)ccnc2n(C)c1=O | 0.15 | x
CN(C(=O)CN1CCC(NC(=O)c2ccccc2Br)CC1)C1CCCCC1 | 0.2 | x
Clc1ccccc1COc1cccc(CNCc2cccnc2)c1 | 0.85 | 0.085
O=[N+]([O-])c1ccc(Nc2nc(NCCO)nc(N3CCOCC3)n2)cc1 | x | -1.3
Cc1c(C(=O)N2CCOCC2)sc(NC(=O)c2ccc3c(c2)OCO3)c1C#N | 0 | x
CN1CNc2c(c(=O)n(C)c(=O)n2C)C1 | x | -0.17
COC(=O)c1sc(-c2ccccc2)cc1NC(=O)C1CC1 | -0.9 | 9.4
O=C1C2C3c4ccccc4C(C(=O)O)(c4ccccc43)C2C(=O)N1Cc1ccccc1 (configuration not stated) | x | 0.35
O=C1/C(=C/c2ccncc2)CCC/C1=C\c1ccncc1 | 0.25 | -1.8
CC(C)(C)c1ccc(NC(=S)NCc2cccnc2)cc1 | 1.1 | -0.055
Cc1sc(NC(=O)c2ccco2)c(C(c2ccccc2)N2CCCC2)c1C (configuration not stated) | 0.4 | x
Nn1c(SCc2ccccc2)n[nH]c1=S | -0.3 | x
Cc1nc2ccccc2c(=O)n1CC(=O)N(C1CCCCC1)C1CCCCC1 | 0.15 | x
N#Cc1c(N)n(CCNC(=O)c2ccc(Cl)cc2)c2nc3ccccc3nc12 | 0.65 | x
Cc1ccccc1NC(=O)CSC1=C(C#N)C(c2ccccc2C)C2=C(CCCC2=O)N1 (configuration not stated) | -0.55 | -0.005
CN1CCN(NC(=O)COc2ccc(-c3ccccc3)cc2)CC1 | 0.95 | 0.27
CCc1cc(C(=O)Cn2cnc3ccccc32)c(O)cc1O | -0.4 | i
COc1ccc(NC(=O)c2sc3ncn(CC(=O)N4CCN(c5ccccn5)CC4)c(=O)c3c2C)cc1OC | x | 0.7
CCOCCCNC(=O)c1cc(S(=O)(=O)N2CC(C)CC(C)C2)ccc1Sc1ccc(Br)cc1 (configuration not stated) | x | -0.08
CC1C(=O)N(Cc2ccc([N+](=O)[O-])cc2)c2ccccc2N1C(=O)C1CC1 (configuration not stated) | x | -0.82
CC(C)(C)C(=O)C(Oc1ccc(Cl)cc1)n1cncn1 (configuration not stated) | -0.5 | 0.17
O=C(Sc1nccc(C(F)(F)F)n1)c1ccc(Cl)cc1 | -0.65 | -0.45
CCOc1ccc(S(N)(=O)=O)cc1 | -0.2 | -0.055
CCN(CC)c1nn2nnnc2c2ccccc12 | 0.1 | -1.4
CCOC(=O)N1CC=C2C(C#N)=C(N)C(C#N)(C#N)C(c3ccc(-c4ccccc4)cc3)C2C1 (configuration not stated) | x | 0.84
C#CC1(O)CC[C@H]2[C@@H]3CCC4=CCCC[C@@H]4[C@H]3CC[C@@]21C (some centres not stated) | x | 8.2
Cc1cc(C)n(Cc2ccc(Cl)cc2)c(=O)c1S(=O)(=O)c1ccccc1 | x | 0.34
N#CCc1nc(-c2ccc(Br)cc2)cs1 | 0.55 | -0.09
CC(C)c1ccc(-n2ccnc2SCC(=O)NC2CCC(O)CC2)cc1 (configuration not stated) | 0.3 | x

# Some of the entries so far, as labelled records:
C#CC1(O)CC[C@H]2[C@@H]3CCC4=CCCC[C@@H]4[C@H]3CC[C@@]21C (some centres not stated)
  AID504770 = x
  Ba CapD inh = 8.2

O=C(Sc1nccc(C(F)(F)F)n1)c1ccc(Cl)cc1
  AID504770 = -0.65
  Ba CapD inh = -0.45

Cc1ccccc1NC(=O)CSC1=C(C#N)C(c2ccccc2C)C2=C(CCCC2=O)N1 (configuration not stated)
  AID504770 = -0.55
  Ba CapD inh = -0.005

Cc1cc(C)n(Cc2ccc(Cl)cc2)c(=O)c1S(=O)(=O)c1ccccc1
  AID504770 = x
  Ba CapD inh = 0.34

# Going on with the list:
Molecule | AID504770 | Ba CapD inh
Cn1ccnc1SCC1CCCCO1 (configuration not stated) | -0.95 | x
O=C1CS(=O)(=O)N(Cc2ccccc2)c2ccccc21 | -0.25 | 4.8
CCCN(CCC)C(=O)CSc1ncccc1C(=O)Oc1ccccc1Cl | 1.3 | 0.31
O=C(Nc1ccccn1)c1ccccc1Cl | -0.8 | 0.095
CC(C)(C)c1ccc(OC(=O)NC(=O)c2ccc(-c3csnn3)cc2)cc1 | -0.45 | -0.35
Nc1cc(-c2ccc(F)cc2)nc(N)n1 | x | 0.07
O=C1c2ccccc2C(=O)N1CCN1CCOCC1 | -0.8 | -0.17
Cc1ccc(CNC(=O)C2c3ccccc3Oc3ccccc32)n1C | 0.45 | x
COC(=O)/C(C#N)=C(\NCc1ccc(Cl)cc1Cl)SC | 1.2 | x
O=C1C2C3C=CC(C3)C2C(=O)N1CN1CCN(CN2C(=O)C3C4C=CC(C4)C3C2=O)CC1 (configuration not stated) | x | -0.18
O=S(=O)(c1ccccc1)N1CCN(C2CCCCCCC2)CC1 | -0.1 | x
Cc1cccc(-n2nc3c(c2NC(=O)c2ccc(S(=O)(=O)N4CCCCC4)cc2)CS(=O)(=O)C3)c1C | x | 0.11
OC(COc1ccc(C2CCCCC2)cc1)CN1CCCCC1 (configuration not stated) | 1.8 | -0.17
O=C(c1ccco1)N1CCN(Cc2cccnc2)CC1 | 0.15 | -0.11
c1ccc(SCc2nnc(-c3ccccc3)o2)cc1 | -0.5 | 0.35
CCOC(=O)c1nn(-c2ccc(OC)cc2)c(C(=O)OCC)c1NC(=O)c1c(Br)cnn1C | 1.4 | 1.6
O=c1[nH]c2ccc(S(=O)(=O)N3CCCCC3)cc2o1 | -1.4 | 0.6
COc1ccc(OCC(O)Cn2c(NCCN(C)C)nc3c2c(=O)n(C)c(=O)n3C)cc1 (configuration not stated) | x | -0.41
CCC(SC1=Nc2ccccc2C2=NC(CC(C)C)C(=O)N12)C(=O)Nc1ccc2c(c1)OCO2 (configuration not stated) | -0.3 | -0.045
Cc1ccc(-c2cnc3cc(-c4sccc4-n4c(C)ccc4C)nn3c2)cc1 | x | -0.54
CC(C)NS(=O)(=O)c1ccc(OCC(=O)N2CCN(Cc3ccccc3)CC2)cc1 | 1 | -0.13
COc1cc(/C=C/C(=O)OCC(=O)NC2CCCCC2)ccc1O | -1.1 | x
CC12COC3(C(=O)NC4CCCCC4)CC1CCC32C (configuration not stated) | x | -0.53
Fc1ccccc1C1Nc2ccc3ccccc3c2C2C=CCC21 (configuration not stated) | 0.8 | 42
CSc1nnc(SC)n1CCNC(=O)OCCc1c(C)cc(C)cc1C | x | -0.59
CCN(CCCn1c(=S)[nH]c2cc3c(cc2c1=O)OCO3)c1cccc(C)c1 | 0.35 | -0.02
Cn1nc(C(F)(F)F)c(C#N)c1S(=O)(=O)c1cccc(C(F)(F)F)c1 | x | 0.53
Cc1cc(Cl)nc(-c2ccccc2)n1 | 0.2 | x
Cc1cc(C)n2nc(SCC(=O)NC3CCCc4ccccc43)nc2n1 (configuration not stated) | -1 | -0.43
O=S(=O)(N=Nc1c(O)[nH]c2ccccc12)c1ccccc1 | 0.4 | x
NC(=NCc1ccccc1)c1ccc(Cl)cc1 | x | 0.55
Cn1nc(-c2ccccc2)c(/C=N/O)c1Cl | 1 | -0.89
O=C(Nc1ccccc1C(=O)N1CCCCC1)C1CCCCC1 | 1.9 | 0.17
COc1cccc2c(CCN)c[nH]c12 | 0.35 | 10
O=C(NC(Cc1ccccc1)C(=O)O)c1ccc(C(=O)NC(Cc2ccccc2)C(=O)O)cc1 (configuration not stated) | x | -0.03
CN(Cc1ccccc1)S(=O)(=O)c1ccc2c(c1)OCC(C(=O)N1CCCC1)O2 (configuration not stated) | -1.1 | -0.43
COc1ccc(/C=C2\C(=O)NC(=O)N(c3ccc(Br)c(C)c3)C2=O)c(OC)c1 | x | 0.005
O=C(COc1ccc(S(=O)(=O)N2CCOCC2)cc1)N1CCN(Cc2ccc3c(c2)OCO3)CC1 | -0.85 | -0.4
COc1ccc(C(C)=O)cc1N1C(=O)C2C3C=CC(O3)C2C1=O (configuration not stated) | x | -2
COc1ccc(CNC(=O)C(C)N2CCN(c3ccc(C(F)(F)F)cn3)CC2)cc1 (configuration not stated) | -1.3 | x
N=C1S/C(=C\c2ccc(-c3ccccc3F)o2)C(=O)N1c1ccc2c(c1)OCO2 | 0.4 | 3.9
CN(C)CCN=c1cc(-c2ccccc2)oc2ccc(Cl)cc12 | -0.2 | -0.33
O=C(NCCN1CCCC1)c1cc(Sc2cccc(Cl)c2)nc2ccccc12 | -0.6 | 70
COC(CNC(=O)c1cc2c(C)nc3ccccc3c2o1)OC | -3 | -0.58
COCCN1Cc2cccc(C(=O)Nc3cccnc3)c2C1=O | 0.25 | -0.25
CC(C)CNC(=S)Nc1ccccc1 | -0.65 | 0.33
O=c1cc(O)c2sc3nc(-c4ccncc4)ccc3c2[nH]1 | -0.4 | 0.2
CC(Nc1ccc2c(c1)OCCO2)C(=O)NC1CCCC1 (configuration not stated) | -0.3 | x
COC1OC2COC(c3ccccc3)OC2C(O)C1O (configuration not stated) | 0.35 | 0.22
O=C(Cn1c(=O)c2sccc2n(CC(=O)Nc2ccccc2)c1=O)NCCc1ccccc1 | -0.1 | 0.39
CCSC1=N/C(=C\c2ccc(C(C)C)cc2)C(=O)S1 | -0.05 | 0.1
Cc1ccc(NC(=O)C/C(N)=N/O)cc1 | -0.35 | -0.35
CC(=O)Nc1ccc(S(=O)(=O)N2CCSC2c2ccccc2)cc1 (configuration not stated) | -0.3 | -0.86
O=C(Cc1nc(O)cs1)c1ccccc1 | -0.1 | -3.4
COc1ccc(Oc2nc3ccccc3c3nnc(-c4ccccc4F)n23)cc1 | x | -1.1
COc1cc(NC(=O)CCN2CCC(C)CC2)cc(OC)c1 | -0.85 | 0.84
C/C=C(\C)CN1CCN(Cc2ccccc2)CC1 | -0.15 | 0.21
O=C(NCCN1CCCCCC1)c1cnc2sc(N3CCOCC3)nn2c1=O | 0.2 | 101
